Screening data as filed in PubChem.
NPYLR7 agonist = agonists of mosquito NPYLR7 receptor, primary screen, cell-based, Aedes aegypti, calcium fluorescence, mosquito biting behavior; AID 1259423, 2018; HEK293T NPYLR7/Galpha15, GCaMP6s calcium fluorescence; actives 0.15% (n = 270,000); activation, % at 10 µM; in the data active = activation above about 40%;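 note: 0% = vehicle and 100% = reference agonist at the receptor; some compounds past the cut are filed as inactive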
NPYLR7 agonist max-min = recorded beside NPYLR7 agonist, whose call it bears; activation, %; measured here: Max-Min RFU normalised activation; some inactives read as strong as hits;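 span of the calcium signal over five minutes; 0% = vehicle and 100% = native peptide agonist; compound fluorescence can raise it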
* = called active by the depositor; & = joins results of further samples. A portion of the library, so the mix of outcomes need not match the whole.

Screening CC(NC(=O)N1CCN(Cc2cccc3cccnc23)CC1)C1CC1 (configuration not stated) returned NPYLR7 agonist 3 and NPYLR7 agonist max-min -3.
COc1ccc(CN2CCN(c3cc(OC)ncn3)CC2=O)cc1 was read as NPYLR7 agonist -4 and NPYLR7 agonist max-min -2.
For N#CC1C(=N)C(C#N)(C#N)[C@H](c2c(F)cccc2F)[C@H]2CC3(CC=C12)OCCO3 (some centres not stated) the results were NPYLR7 agonist 4 and NPYLR7 agonist max-min 7.
Screening N#Cc1ccccc1CSc1nnc(-c2ccco2)o1 returned NPYLR7 agonist 9 and NPYLR7 agonist max-min 3.
Screening COCCN(Cc1nc2ccccc2o1)C(=O)c1ccc(Cl)cc1Cl returned NPYLR7 agonist -1 and NPYLR7 agonist max-min -7.
Cc1cc(C)c2oc(-c3cccc(NC(=O)c4ccccc4F)c3)nc2c1 was read as NPYLR7 agonist 0 and NPYLR7 agonist max-min -4.
CCOC(=O)c1ccc2c(c1)nc(SCc1c(F)c(F)c(OC)c(F)c1F)n2Cc1ccc(C(F)(F)F)cc1 was read as NPYLR7 agonist 5 and NPYLR7 agonist max-min 4.
For COCCN(CC(=O)Nc1nc(CC(=O)O)cs1)C(=O)c1ccco1 the results were NPYLR7 agonist -4 and NPYLR7 agonist max-min -14.
COC(=O)c1cc2n(n1)CCN(Cc1cc3c(cc1OC)CCC3)C2 was read as NPYLR7 agonist -10 and NPYLR7 agonist max-min -9.
For Cc1noc(C)c1CSc1cc(C)c2ccccc2n1 the results were NPYLR7 agonist -4 and NPYLR7 agonist max-min 10.
Cn1cc(C(=O)NCCSc2cn[nH]n2)c2ccccc21 was read as NPYLR7 agonist -7 and NPYLR7 agonist max-min -11.
O=C(c1cc(C2CC2)[nH]n1)N1CCCC(Cc2nc3ccccc3[nH]2)C1 (configuration not stated) was read as NPYLR7 agonist 4 and NPYLR7 agonist max-min -1.
`C=CCn1c(=O)c(C(=O)NCCc2ccccc2)c(O)c2ccccc21` gave NPYLR7 agonist 19 and NPYLR7 agonist max-min 15.
For Cc1cc(C)n(-c2cccc(CN(C)Cc3ccccn3)c2)n1 the results were NPYLR7 agonist 7 and NPYLR7 agonist max-min 1.
For C=CC1(O)CCC2COC1O2 (configuration not stated) the results were NPYLR7 agonist -4 and NPYLR7 agonist max-min -8.
Screening Cn1cc(/C=C2/C(=O)NC(=S)N(c3ccccc3)C2=O)c2ccccc21 returned NPYLR7 agonist 5 and NPYLR7 agonist max-min 1.
For Cc1ccc(C)c(C2CCCN2C(=O)c2nccnc2N)c1 (configuration not stated) the results were NPYLR7 agonist 4&-25 and NPYLR7 agonist max-min 3&-25.
Screening CNc1cc(C)nc(NCc2cc(C)cc3c(C)c(C)[nH]c23)n1 returned NPYLR7 agonist 0 and NPYLR7 agonist max-min -2.
Screening Cc1cnccc1N1CCCN(C(=O)Nc2nncs2)CC1 returned NPYLR7 agonist 8 and NPYLR7 agonist max-min 9.
`CCOc1ccc(C=NN2CCN(Cc3ccc(C)cc3C)CC2)cc1` gave NPYLR7 agonist 0 and NPYLR7 agonist max-min -3.
`COc1ccc2oc(=Nc3ccccc3Cl)c(-c3nc4ccccc4[nH]3)cc2c1` gave NPYLR7 agonist -3 and NPYLR7 agonist max-min -7.
N#CC1C(=N)C(C#N)(C#N)C(c2ccc(F)cc2F)C2CCCC=C12 (configuration not stated) was read as NPYLR7 agonist 13 and NPYLR7 agonist max-min 6.
Screening COCCOc1nc(-c2ccc(C(F)(F)F)cc2)n(-c2ccc(NC(=O)c3ccc([N+](=O)[O-])cc3)cc2)n1 returned NPYLR7 agonist 1 and NPYLR7 agonist max-min 10.
Screening Cc1ccccc1-n1ncc(C(C)NC(=O)c2cc(C3CC3)[nH]n2)c1C (configuration not stated) returned NPYLR7 agonist -1 and NPYLR7 agonist max-min 0.
Screening O=C(Cn1cnc2sc3c(c2c1=O)CCCC3)NCC1CCCCC1 returned NPYLR7 agonist 3 and NPYLR7 agonist max-min 1.
`Nc1nc(=S)nc(-c2cccs2)[nH]1` gave NPYLR7 agonist -1 and NPYLR7 agonist max-min -4.
`Cc1cc(C)cc(COc2coc(CN3CCN(C(=O)c4cc(C(C)(C)C)nn4Cc4ccccc4)CC3)cc2=O)c1` gave NPYLR7 agonist 25 and NPYLR7 agonist max-min 11.
For COc1ccc(C=CC(=O)c2cccs2)cc1O the results were NPYLR7 agonist 15 and NPYLR7 agonist max-min 9.
For CCc1ccc(Nc2nnc(SCC(=O)NC3CCCC3)s2)cc1 the results were NPYLR7 agonist -4 and NPYLR7 agonist max-min 0.
COc1ccc(-c2ccc(C3NCCc4[nH]cnc43)cc2)c2ccc(C)nc12 (configuration not stated) was read as NPYLR7 agonist -1 and NPYLR7 agonist max-min 18.
For Cc1noc(C)c1-c1nc(CC(C)C)nn1-c1ccc2c(c1)OCO2 the results were NPYLR7 agonist 6 and NPYLR7 agonist max-min 6.
For CCc1ccccc1NC(=O)NCCNc1ccc(Nc2ccccn2)nn1 the results were NPYLR7 agonist 23 and NPYLR7 agonist max-min 19.
Cc1ccc(NC(=O)Nc2ccc([N+](=O)[O-])cc2)cc1S(=O)(=O)N1CCCCCC1 was read as NPYLR7 agonist -1 and NPYLR7 agonist max-min -7.
For O=C(c1ccncc1)N1CCC2(CCCN(CCCc3ccccc3)C2)C1 (configuration not stated) the results were NPYLR7 agonist 17 and NPYLR7 agonist max-min 10.
CCOC1CC(NC(=O)c2c(C)c(C)n[nH]c2=O)C1(CC)CC (configuration not stated) was read as NPYLR7 agonist 2 and NPYLR7 agonist max-min -6.
Screening CCCn1ncc(NC(=O)c2cccc(CN3CC=CCC3)c2)n1 returned NPYLR7 agonist -1 and NPYLR7 agonist max-min 3.
COc1cccc(-c2cnc(-c3ccc(CNC(=O)c4cc(Cl)cc(Cl)c4)cc3)[nH]2)c1 was read as NPYLR7 agonist 1 and NPYLR7 agonist max-min -6.
`CC(C)(C)C(=O)N1CCC(C(=O)NOC2CCCCO2)CC1` (configuration not stated) gave NPYLR7 agonist 2 and NPYLR7 agonist max-min 6.
`CCN(C(=N)N1CCCC1)c1nc(C)c([N+](=O)[O-])c(=O)[nH]1` gave NPYLR7 agonist -1 and NPYLR7 agonist max-min -2.
CCOC(=O)c1c(C)c(C(=O)CN(Cc2ccco2)C(=O)c2ccccc2OC)c(C)n1CC was read as NPYLR7 agonist 2 and NPYLR7 agonist max-min 0.
For Cc1ccc(CN2CCN(Cc3ccccc3Cn3cccn3)CC2=O)cc1 the results were NPYLR7 agonist -5 and NPYLR7 agonist max-min -11.
For CC1(C(=O)NS(=O)(=O)c2ccc(Br)cc2)CCN1C(=O)C/C=C/c1ccccc1 (configuration not stated) the results were NPYLR7 agonist 6 and NPYLR7 agonist max-min 4.
COc1cn(CC(=O)Nc2ccc(C)cc2)c(CN2CCN(C(C)=O)CC2)cc1=O was read as NPYLR7 agonist 3 and NPYLR7 agonist max-min 0.
CCOC(=O)c1nn(-c2ccccc2C)c(=O)cc1OS(=O)(=O)c1c(C)noc1C was read as NPYLR7 agonist 8 and NPYLR7 agonist max-min 3.
`Cc1ccc(SC(C)C(=O)Nn2cnnc2)cc1` (configuration not stated) gave NPYLR7 agonist -1 and NPYLR7 agonist max-min -1.
Screening O=c1ccnc2sc(NCc3ccc(N4CCCC4)cc3)nn12 returned NPYLR7 agonist 0 and NPYLR7 agonist max-min -1.
Cc1cccc(C(=O)N(Cc2ccccc2)Cc2nccs2)c1 was read as NPYLR7 agonist 11 and NPYLR7 agonist max-min 3.
COc1ccc(-c2cc(C(=O)N3CCN(C)CC3C)no2)c(F)c1 (configuration not stated) was read as NPYLR7 agonist 9 and NPYLR7 agonist max-min 4.
Screening Nc1c[n+](N2CCOCC2)no1 returned NPYLR7 agonist 4 and NPYLR7 agonist max-min -33.
`Cc1ccc(OCC(=O)N2CCc3c(sc4[nH]c(=O)n(CCc5ccccc5)c(=O)c34)C2)cc1` gave NPYLR7 agonist 6 and NPYLR7 agonist max-min 2.
`CSCCN(C)C(=O)C(CC(C)C)NS(=O)(=O)c1ccc(C)cc1` (configuration not stated) gave NPYLR7 agonist -3 and NPYLR7 agonist max-min -5.
Cc1c(C(=O)N2CCOCC2)c(C(F)(F)F)nn1C1CCCN(C(C)C)C1 (configuration not stated) was read as NPYLR7 agonist 0 and NPYLR7 agonist max-min -3.
Screening CCOC(=O)/C(=N\Nc1ccc(C)cc1)c1nn[nH]n1 returned NPYLR7 agonist 2 and NPYLR7 agonist max-min -1.
Screening CCOC(=O)N1CCC(N2CCCC(CO)(Cc3ccccc3C)C2)CC1 (configuration not stated) returned NPYLR7 agonist -7 and NPYLR7 agonist max-min -11.
Screening CCCn1nc(C(=O)NC(C)c2ccco2)c2ccccc2c1=O (configuration not stated) returned NPYLR7 agonist 0 and NPYLR7 agonist max-min -1.
O=C(CC1COCCN1)NCCCn1nnc2ccccc21 (configuration not stated) was read as NPYLR7 agonist -2 and NPYLR7 agonist max-min -4.
For Cc1cc(NCCOCCO)n2ncc(-c3ccc(Cl)cc3)c2n1 the results were NPYLR7 agonist 4 and NPYLR7 agonist max-min 6.
Screening CCOC(=O)NNC(=O)CC(O)(c1nc(C)cs1)C(F)(F)F (configuration not stated) returned NPYLR7 agonist 3 and NPYLR7 agonist max-min 11.
Screening CCCNC(=O)CN1CCN(c2c(C)cnc3ccccc23)CC1 returned NPYLR7 agonist 4 and NPYLR7 agonist max-min 2.
Screening Cc1ccc(NC(=O)N2CCN(CC(=O)N3CCCC3)CC2)cc1 returned NPYLR7 agonist -3 and NPYLR7 agonist max-min -2.

14 compounds from above, ordered by SMILES length, smallest number first:
Screening Nc1c[n+](N2CCOCC2)no1 returned NPYLR7 agonist 4 and NPYLR7 agonist max-min -33.
`Cc1ccc(SC(C)C(=O)Nn2cnnc2)cc1` (configuration not stated) gave NPYLR7 agonist -1 and NPYLR7 agonist max-min -1.
O=C(CC1COCCN1)NCCCn1nnc2ccccc21 (configuration not stated) was read as NPYLR7 agonist -2 and NPYLR7 agonist max-min -4.
Screening O=c1ccnc2sc(NCc3ccc(N4CCCC4)cc3)nn12 returned NPYLR7 agonist 0 and NPYLR7 agonist max-min -1.
Screening CCCNC(=O)CN1CCN(c2c(C)cnc3ccccc23)CC1 returned NPYLR7 agonist 4 and NPYLR7 agonist max-min 2.
Screening CCCn1nc(C(=O)NC(C)c2ccco2)c2ccccc2c1=O (configuration not stated) returned NPYLR7 agonist 0 and NPYLR7 agonist max-min -1.
Screening Cc1ccc(NC(=O)N2CCN(CC(=O)N3CCCC3)CC2)cc1 returned NPYLR7 agonist -3 and NPYLR7 agonist max-min -2.
Screening CCOC(=O)N1CCC(N2CCCC(CO)(Cc3ccccc3C)C2)CC1 (configuration not stated) returned NPYLR7 agonist -7 and NPYLR7 agonist max-min -11.
`CSCCN(C)C(=O)C(CC(C)C)NS(=O)(=O)c1ccc(C)cc1` (configuration not stated) gave NPYLR7 agonist -3 and NPYLR7 agonist max-min -5.
Cc1c(C(=O)N2CCOCC2)c(C(F)(F)F)nn1C1CCCN(C(C)C)C1 (configuration not stated) was read as NPYLR7 agonist 0 and NPYLR7 agonist max-min -3.
COc1cn(CC(=O)Nc2ccc(C)cc2)c(CN2CCN(C(C)=O)CC2)cc1=O was read as NPYLR7 agonist 3 and NPYLR7 agonist max-min 0.
CCOC(=O)c1nn(-c2ccccc2C)c(=O)cc1OS(=O)(=O)c1c(C)noc1C was read as NPYLR7 agonist 8 and NPYLR7 agonist max-min 3.
For CC1(C(=O)NS(=O)(=O)c2ccc(Br)cc2)CCN1C(=O)C/C=C/c1ccccc1 (configuration not stated) the results were NPYLR7 agonist 6 and NPYLR7 agonist max-min 4.
`Cc1ccc(OCC(=O)N2CCc3c(sc4[nH]c(=O)n(CCc5ccccc5)c(=O)c34)C2)cc1` gave NPYLR7 agonist 6 and NPYLR7 agonist max-min 2.

(cont.)
`CCOC(=O)C1(C)CCCCN1C(=O)c1ccccc1OC(F)(F)F` (configuration not stated) gave NPYLR7 agonist 2 and NPYLR7 agonist max-min -1.
`CC(c1ccc(F)c(Cl)c1)N(C)CCNS(C)(=O)=O` (configuration not stated) gave NPYLR7 agonist 8 and NPYLR7 agonist max-min 4.
Screening CCn1cc(C(CC(=O)O)c2cccc(Cl)c2)c2ccccc21 (configuration not stated) returned NPYLR7 agonist -2 and NPYLR7 agonist max-min 3.
Screening C=Cn1cc(C(=O)N(C)Cc2nc3cc(C)c(C)cc3[nH]2)cn1 returned NPYLR7 agonist -5 and NPYLR7 agonist max-min -7.
`COc1cc2c(cc1OC)C(=O)NC(C1CC1)N2` (configuration not stated) gave NPYLR7 agonist 13 and NPYLR7 agonist max-min 11.
`CC(C)N1CCN(CCn2cnc3c(F)cccc3c2=O)CC1` gave NPYLR7 agonist 1 and NPYLR7 agonist max-min 5.
Screening CCN(CC)c1ccc(C2C(C(=O)OC)=C(C)Nc3ncnn32)cc1 (configuration not stated) returned NPYLR7 agonist -5 and NPYLR7 agonist max-min -7.
Screening CN1CCN(c2ccc(NC(=O)c3ccc4c(c3)OCO4)cn2)CC1 returned NPYLR7 agonist -9 and NPYLR7 agonist max-min -12.
For Cc1ccc(F)c(CC(=O)N2CCOC(Cc3ccccc3)C2)c1F (configuration not stated) the results were NPYLR7 agonist 14 and NPYLR7 agonist max-min 24.
Screening O=C(CSCc1nc2ccccc2[nH]1)N1CCOCC1 returned NPYLR7 agonist -1 and NPYLR7 agonist max-min 2.
For O=c1ccc(-c2ccccc2)nn1CCN1CCN(S(=O)(=O)c2ccccc2F)CC1 the results were NPYLR7 agonist -4 and NPYLR7 agonist max-min 3.
`CCc1noc(CN(CC)C(=O)c2cc(Cl)c[nH]c2=O)n1` gave NPYLR7 agonist 8 and NPYLR7 agonist max-min 9.
`CCOCC(=O)NCC1CN(c2ccc(Cl)c(Cl)c2)C(=O)O1` (configuration not stated) gave NPYLR7 agonist 0 and NPYLR7 agonist max-min 7.
